Bioassay records from PubChem.
MT1-MMP act inh: MT1-MMP (human) activation inhibition; P50281; HT1080 RFP-PRO-GFP cells, GFP/RFP ratio fluorescence, overnight; percent of plate control window, DMSO zero; GFP/RFP ratio change, % at 20 µM; 360,000 tested, 0.061% active; AID 651647;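 active = GFP/RFP ratio change of at least 30% with cell ATP level not reduced by more than half and red fluorescence within 50% of control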; note: strong numbers were not always called active
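Compound: 20 µM single dose, 1% DMSO / System: HT1080 RFP-PRO-GFP cells / Controls: DMSO and RFP-L50D-GFP cell wells / Read-out basis: GFP/RFP fluorescence ratio / Schedule: overnight compound exposure at 37 °C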
Env fusion inh: blocks HIV Env-driven cell-cell fusion. HeLa-JRFL Env/CEM21 cell fusion, luciferase. inhibition, % at 12.3 µM. 360,000 tested, 1.1% active. AID 651610;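 active = mean replicate inhibition score of at least 50 and every replicate individually at or above 50; inconclusive = only one of the two criteria met; inactive = mean below 50 and not all replicates reaching 50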;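 note: 0% = plate neutral controls and 100% = maraviroc near 300 nM; one replicate is shown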
MT1-MMP act inh RFP: recorded beside MT1-MMP act inh, whose call it bears; RFP signal change, %; measured here: RFP expression control read;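 0 = vehicle wells; hits needed this value within 50% of zero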
Active calls of the source: *; ? = inconclusive. Some of the compounds tested; rates above refer to the full screens.

1: CC[C@H]1c2ccccc2[C@@H]2CC[C@H]1N2c1ccccc1
2: CN(Cc1cccc(-c2cccnc2)c1)C(=O)Oc1ccc([N+](=O)[O-])cc1
3: CCCCCN1C(=O)c2ccccc2[C@@]2(C(=O)OCC)Cc3cc(OC)ccc3[C@@H]12
4: O=C1C=C2c3ccccc3CC(C(=O)O)C2CC1 (stereo not given)
5: CC1CC2(C)C(CCC3C2CCC2(C)C(OP(=O)(N4CC4)N4CC4)CCC32)CC1=O (stereo not given)
6: COc1cc2c(cc1OC)C13CCN4CC5=CCOC(CC(=O)O)C(C5CC41)C3N2 (stereo not given)
7: O=C1NC2C(=CC(O)C(O)C2O)c2cc3c(cc21)OCO3 (stereo not given)
8: CC1([N+](=O)[O-])COP(=O)(NC2CC2)OC1 (stereo not given)

Screen / compound no.,1,2,3,4,5,6,7,8
MT1-MMP act inh,2,-14,-13,4,6,-2,-42,1
MT1-MMP act inh RFP,0,-28,-29,7,2,2,-36,4
Env fusion inh,17,134*,-7,24,-2,-18,100*,5

Random excerpt: five records from the list.
6: COc1cc2c(cc1OC)C13CCN4CC5=CCOC(CC(=O)O)C(C5CC41)C3N2 (stereo not given)
3: CCCCCN1C(=O)c2ccccc2[C@@]2(C(=O)OCC)Cc3cc(OC)ccc3[C@@H]12
5: CC1CC2(C)C(CCC3C2CCC2(C)C(OP(=O)(N4CC4)N4CC4)CCC32)CC1=O (stereo not given)
7: O=C1NC2C(=CC(O)C(O)C2O)c2cc3c(cc21)OCO3 (stereo not given)
8: CC1([N+](=O)[O-])COP(=O)(NC2CC2)OC1 (stereo not given)

Screen / compound no.,6,3,5,7,8
MT1-MMP act inh,-2,-13,6,-42,1
MT1-MMP act inh RFP,2,-29,2,-36,4
Env fusion inh,-18,-7,-2,100*,5

Continued.
9: C[C@@H]1COc2cc(N3CCN(C)CC3)ccc2S(=O)(=O)N1
10: N#Cc1c(Br)n(C2OC(CO)C(O)C2O)c2ncnc(N)c12 (stereo not given)
11: COC(=O)[C@@H]1N=C(c2ccc(OC)cc2)O[C@]12C(=O)N(Cc1ccc(OC)cc1)c1ccccc12
12: C=C1C(=O)OC2CC3(C)OC3CCC(C)=CC(OC(C)=O)C12 (stereo not given)
13: CC1=CC2OC3CC4OC(=O)C=CC=CC(C(C)O)OCC(O)C(C)CC(=O)OCC2(CC1O)C4(C)C31CO1 (stereo not given)
14: CCOC(=O)[C@]12Cc3cc(OC)ccc3[C@H]1N(C(C)C)C(=O)c1cc(OC)ccc12
15: CC(=O)OC1CCC2(C)C(=CC(=O)C3C2CCC2(C)C(OC(C)=O)CCC32)C1 (stereo not given)
16: CC(N)C(=O)NC1C2C(=C(O)CC(O)C2O)C(=O)OC1(C)C(Cl)Cl (stereo not given)

Screen / compound no.,9,10,11,12,13,14,15,16
MT1-MMP act inh,3,11,8,2,-38,-14,-3,-46
MT1-MMP act inh RFP,5,-5,2,-14,-36,-23,-1,-35
Env fusion inh,23,-1,-3,33,83*,39,5,99*

17: CC1=CP(=O)(Oc2ccc([N+](=O)[O-])cc2)CC1 (stereo not given)
18: O=P(/C=C1\OCc2ccccc21)(Oc1ccccc1)Oc1ccccc1
19: COC1CCC(OC2CC(C3(C)CCC4(CC(O)C(C)C(C(C)/C=C(\C)C(=O)C(C)CC(C)C(=O)O)O4)O3)OC3(OC(C4OC(O)(CO)C(C)CC4C)CC3C)C2C)OC1C (stereo not given)
20: CC1(C(=O)O)CC12c1ccccc1-c1ccccc12 (stereo not given)
21: CCOC(=O)[C@]12Cc3cc(OC)ccc3[C@H]1N(C1CCCCC1)C(=O)c1cc(OC)ccc12
22: CC1=C(C)CC2(C(=O)NC(=S)NC2=O)C(C)C1 (stereo not given)
23: CNC(=O)C[C@H]1CC[C@@H]2NC[C@H](O)COC[C@H]2O1
24: CCC1(c2ccccc2)C(=O)NC(=S)NC1=O

Screen / compound no.,17,18,19,20,21,22,23,24
MT1-MMP act inh,-1,-1,-2,2,-15,10,2,0
MT1-MMP act inh RFP,3,-3,-33,-1,-29,2,2,-2
Env fusion inh,21,-1,47,-4,-84,-8,-7,2

Two entries from above, reformatted:
entry	Structure	MT1-MMP act inh	MT1-MMP act inh RFP	Env fusion inh
2	CN(Cc1cccc(-c2cccnc2)c1)C(=O)Oc1ccc([N+](=O)[O-])cc1	-14	-28	134*
3	CCCCCN1C(=O)c2ccccc2[C@@]2(C(=O)OCC)Cc3cc(OC)ccc3[C@@H]12	-13	-29	-7

The listing continues.
25: Cc1[nH]c2ccccc2c1CN1CCCCC1
26: CCCC1(CC(C)CC)C(=O)NC(=O)NC1=O (stereo not given)
27: CCOC(=O)[C@]12Cc3cc(OC)ccc3[C@H]1N(C)C(=O)c1cc(OC)ccc12
28: Fc1ccc(NC(=S)N2Cc3ccccc3-n3nncc3C2)cc1
29: O=S(=O)(c1ccccc1)C1CN1c1c(F)c(F)c(F)c(F)c1F (stereo not given)
30: C=C1C(C)C2C(Cc3ccccc3)NC(=O)C23OC(=O)/C=C/C(O)CCCC(C)C/C=C/C3C1O (stereo not given)
31: O=[N+]([O-])c1ccc(C(=Nc2ccccc2)N2CC2)cc1
32: CC1=CC2OC3CC4OC(=O)C=CC=CC(C(C)O)OCC(O)C5(C)OC5C(=O)OCC2(CC1O)C4(C)C31CO1 (stereo not given)

Screen / compound no.,25,26,27,28,29,30,31,32
MT1-MMP act inh,-2,1,-9,-1,3,4,6,-46
MT1-MMP act inh RFP,1,2,-9,-9,2,12,1,-40
Env fusion inh,2,-33,9,19,9,?,-9,73*

Looked up above:
For MT1-MMP act inh RFP, O=[N+]([O-])c1ccc(C(=Nc2ccccc2)N2CC2)cc1 shows 1
For Env fusion inh, CC1=CC2OC3CC4OC(=O)C=CC=CC(C(C)O)OCC(O)C5(C)OC5C(=O)OCC2(CC1O)C4(C)C31CO1 (stereo not given) shows 73*
For Env fusion inh, Fc1ccc(NC(=S)N2Cc3ccccc3-n3nncc3C2)cc1 shows 19
For MT1-MMP act inh RFP, C=C1C(C)C2C(Cc3ccccc3)NC(=O)C23OC(=O)/C=C/C(O)CCCC(C)C/C=C/C3C1O (stereo not given) shows 12
For Env fusion inh, Cc1[nH]c2ccccc2c1CN1CCCCC1 shows 2

More entries:
33: COC(=O)[C@@H]1N=C(c2ccc(OC)cc2)O[C@]12C(=O)N(C)c1ccc(Cl)cc12
34: CC(=O)OC1CCC2(C)C(CCC3C4CC(N5CC5)C(C(C)=O)C4(C)CC(=O)C32)C1 (stereo not given)
35: O=C1NCCCCC1(Cl)Cl
36: CN1C(=O)C(C)(C2=CCCCC2)C(=O)NC1=S (stereo not given)
37: CCOC(=O)[C@]12Cc3ccccc3[C@H]1N(Cc1ccccc1)C(=O)c1cc(OC)ccc12
38: CCOC(=O)[C@]12Cc3cc(C)ccc3[C@H]1N(CCC(=O)OC)C(=O)c1cc(OC)ccc12
39: CCOC(=O)c1cc2ccccc2n1C1CCN(Cc2ccccc2)CC1

Screen / compound no.,33,34,35,36,37,38,39
MT1-MMP act inh,0,2,1,3,-10,-7,2
MT1-MMP act inh RFP,0,1,1,1,-6,-10,0
Env fusion inh,15,-25,-27,0,-3,21,4
